ClpP mod – qHTS Assay for Activators of ClpP; purified B. subtilis ClpP, FRET peptide cleavage, 20 min; Potency, µM (titrated, usually from 57.5 µM), without a hit: top-dose activity change, negative = active; 340,000 compounds, 1.9% hits; AID 651965, 2013; active = well fitted falling curve with a large enough effect; inconclusive = small, poorly fitted or top-dose-only effect; inactive = no such curve, though single readings can be large or run the other way; further: potency means the concentration at half of the fitted maximal effect; the source files actives as falling curves though it sought activators and does not explain the sign; nearly all actives have a fitted effect of over 65% in size; many hits overshoot -100%
Target sequence (P80244 whole entry, looked up): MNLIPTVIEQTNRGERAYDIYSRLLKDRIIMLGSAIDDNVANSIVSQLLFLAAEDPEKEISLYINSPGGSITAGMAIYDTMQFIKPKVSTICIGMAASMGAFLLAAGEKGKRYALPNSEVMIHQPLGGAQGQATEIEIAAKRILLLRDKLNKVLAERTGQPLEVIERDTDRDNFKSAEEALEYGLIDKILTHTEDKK
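Buffer: 100 mM Tris/HCl pH8, 100 mM KCl, 0.05% low protease BSA, 2.5% glycerol, 0.01% Tween-20. ClpP 10 microg/mL final; 20 min RT; delta FRET normalized to ADEP and DMSO controls.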
gsp antagonist – antagonists of gsp mutant (McCune-Albright syndrome) | gsp-mutant cells, cAMP HTRF, 30 min; control for the full effect not named in the record | Potency, µM (highest dose often 76.9 µM), for the others: at the top dose activity change, negative = inhibition, hits mostly inhibitors | 340,000 compounds, 0.4% hits | AID 624288; active = falling curve of any shape with a large fitted effect; inconclusive = falling curve, mostly with a smaller effect; inactive = flat or rising curve; cell line not stated here;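 further: intracellular cAMP measured with PDE inhibitor Ro 20-1724 present during compound exposure; potency means the concentration at half of the fitted maximal effect; on the % scale 0 is the no-effect control and ±100 the full control effect; nearly all actives have a fitted effect of over 65% in size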
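Cells in G418 medium, seeded 16-24 h, 37C; buffer exchange to DPBS + 1 mM CaCl2, 0.5 mM MgCl2, 0.05% BSA; cpds in DMSO + […] (300 uM stock), 30 min 37C; HTRF cAMP detection.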
TRPV1 potentiator – human TRPV1 potentiation | 320,000 compounds, 0.02% hits | potentiation, % at 8.33 µM | TRPV1-expressing cells, Fluo-8 calcium influx, capsaicin EC20 potentiation; host cell line not named in the record; control for the full effect not named in the record; active means potentiation above 80%; inconclusive means 30% to 80%; inactive means below 30%; further: 0% is about no effect
Target sequence (Q8NER1 whole entry, looked up): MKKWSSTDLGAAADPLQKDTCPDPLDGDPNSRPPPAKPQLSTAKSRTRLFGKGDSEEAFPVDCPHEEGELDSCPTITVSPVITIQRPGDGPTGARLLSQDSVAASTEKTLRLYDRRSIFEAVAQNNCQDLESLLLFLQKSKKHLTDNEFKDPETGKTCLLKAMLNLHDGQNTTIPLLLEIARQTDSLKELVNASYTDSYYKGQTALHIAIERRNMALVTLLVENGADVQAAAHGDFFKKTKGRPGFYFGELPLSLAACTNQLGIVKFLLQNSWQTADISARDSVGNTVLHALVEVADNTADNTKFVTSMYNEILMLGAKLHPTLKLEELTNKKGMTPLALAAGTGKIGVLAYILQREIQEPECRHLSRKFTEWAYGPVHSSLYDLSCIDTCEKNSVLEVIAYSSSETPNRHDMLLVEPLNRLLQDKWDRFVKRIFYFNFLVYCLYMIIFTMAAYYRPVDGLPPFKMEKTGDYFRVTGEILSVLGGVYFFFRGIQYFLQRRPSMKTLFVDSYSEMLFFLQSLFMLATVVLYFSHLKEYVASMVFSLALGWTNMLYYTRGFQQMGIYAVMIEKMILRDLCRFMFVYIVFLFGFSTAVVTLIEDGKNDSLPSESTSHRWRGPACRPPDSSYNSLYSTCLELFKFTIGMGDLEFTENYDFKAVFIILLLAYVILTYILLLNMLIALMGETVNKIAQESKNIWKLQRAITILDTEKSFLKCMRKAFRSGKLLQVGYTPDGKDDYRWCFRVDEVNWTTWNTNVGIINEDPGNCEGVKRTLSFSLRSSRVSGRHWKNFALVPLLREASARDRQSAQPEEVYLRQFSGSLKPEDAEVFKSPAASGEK
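Fluo-8 calcium influx in TRPV1-expressing cells, kinetic read (ex 480/em 520 nm). Compound added and read 3 min for agonist activity, followed by capsaicin at EC20 final and 2 min further read for enhancement.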
Menin MLL FP FL – displaces fluorescein MLL peptide from human menin; Fluorescence polarization, fluorescein-MLL peptide displacement from menin; FP activity change, % at 61.4 µM; 290,000 tested, under 10 active; AID 1766; inconclusive = falling polarisation curve, or a change in total fluorescence; inactive = total fluorescence flat and polarisation flat or rising; no compound was filed as active; the % refers to the polarisation; negative = inhibition;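 further: % of control where 0% means no effect; inhibitors lower the polarisation; unlabelled MLL peptide was the positive control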
CtBP-E1A blk – inhibitors of CtBP/E1A interaction. AlphaScreen GST-E1A/His-CtBP binding, 1536-well; hits give low values; control for the full effect not named in the record. activity change, % (no concentration beside the values). 340,000 compounds, 0.49% hits; in the data active means activity change below about -65%; inconclusive means about -30% to -65%; inactive means above about -30%; further: on the % scale 0 is the no-effect control and ±100 the full control effect
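Steps: dispense buffer (Tris pH 8.0, NaCl 300 mM, TCEP 1 mM, BSA, Tween 20); add 5X protein mix (GST-E1A, His-CtBP, 125 nM each); pin 23 nL compound; 2 h at 37 °C, dark; add 5X beads (50 ug/mL); 1 h; read.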
Sfp inh – Sfp phosphopantetheinyl transferase inhibition | 310,000 compounds, 3.5% hits | Potency, µM, without a hit: max response, negative = inhibition, hits mostly inhibitors | Q9F4F7 | Biochemical Sfp PPTase activity, qHTS; active means well fitted inhibition curve with a large enough effect; inconclusive means small, poorly fitted or top-dose-only effect, or another doubt; inactive means no such curve, though single readings can be large or run the other way;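 further: the enzyme is Sfp with the accession as filed and its product quenches rhodamine fluorescence; potency means the concentration at half of the fitted maximal effect; 0% = enzyme reaction without inhibitor and -100% = no enzyme wells; top concentration of the series not given in the record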
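Fluorescence-quenching assay with 15 nM Sfp, 5 uM rhodamine-CoA and 12.5 uM BHQ-2-labelled ybbR peptide in pH 7.6 Hepes/MgCl2 buffer. Enzyme was pre-incubated with compound for 15 min at room temperature. Rate was taken from the 30-min fluorescence change (525/598 nm).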
gsp agonist – agonists of gsp mutant (McCune-Albright syndrome) | gsp mutant cells, cAMP HTRF, 30 min; control for the full effect not named in the record | Potency, µM (titrated, usually from 76.9 µM), inactives show at the top dose activation (cAMP increase), hits mostly activators | 340,000 compounds, 0.13% hits | AID 624287; active = well fitted activation curve with a large enough effect; inconclusive = small, poorly fitted or top-dose-only effect, or another doubt; inactive = no such curve, though single readings can be large or run the other way; cell line not stated here;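 further: phosphodiesterase inhibitor Ro 20-1724 added with compounds to block cAMP breakdown; potency means the concentration at half of the fitted maximal effect; nearly all actives have a fitted effect of over 60% in size; about a fifth of the inactives were tested at one dose only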
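Cells stably selected in G418 were plated at 2000/well, grown 16-24 hr, then given compounds in DMSO with the PDE inhibitor […] (300 uM solution added) for 30 min at 37C; cAMP was read by HTRF.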
Active calls of the source: *; ? = inconclusive; . = not tested or not shown; & = joins results of further samples; [ ] = remark or other dose.

Sequence of screens – ClpP mod, gsp antagonist, TRPV1 potentiator, Menin MLL FP FL, CtBP-E1A blk, Sfp inh, gsp agonist
> Cn1nc(C(C)(C)C)c(NC(=O)c2sccc2Cl)c1C(C)(C)C
→ ., 8.8%, ., -0.2, 9.0, 4.0%, -26.0%
> Cn1c(NCCc2ccccc2)cc(=O)n(C)c1=O
→ 0.9%, -1.3%, -3.7, 0.8, 1.9, -7.2%, 11.2%
> CC(=O)Nc1c2c(nn1-c1cccc(Cl)c1)CS(=O)(=O)C2
→ 0.3%, 3.6%, -3.4, 4.8, 1.2, 19.9%, 8.5%
> O=C(CSc1ncccn1)NCCc1ccccc1
→ -0.3%, 9.7%, -5.6, -1.8, 3.7, 18.5%, 19.7%
> CCN1C[C@@H]2[C@@H]3C(=O)N(Cc4ccccc4)C(=O)[C@@H]3[C@](C)(C(=O)OC)N2C1=NC
→ -0.6%, 11.2%, ., ., 5.1, ., .
> COC(=O)CCC(=O)OC1(C)C(=O)C=C2C=C(C3CC3)N(CCN3CCOCC3)C=C2C1=O (centres undefined)
→ -2.4%, 9.9%, -17.7, -10.4[11.7 µM], -4.6, 9.4%&4.2%, .
> O=C(CCCOc1ccc(Cl)cc1Cl)NCCCn1ccnc1
→ ., -5.9%, -10.7, -0.6, 2.1, 0.9%, ?
> CCC(C)NC(=O)CCC(=O)Nc1ccc2nc(N3CCOCC3)cc(C)c2c1 (centres undefined)
→ ?, -5.8%, 18.4, 2.0, -3.0, 5.7%, 0.0%
> CC1CCCN(S(=O)(=O)c2ccc(NC(=O)C3CCN(C(=O)C(C)(C)C)CC3)cc2)C1 (centres undefined)
→ -2.7%, -0.1%, -18.6, ., ., ., -0.4%
> CCNC(=S)Nc1cc2oc3ccccc3c2cc1OC
→ 3.6%, -12.6%, -13.4, ., -2.9, 26.2%, ?
> O=c1cc(CN2CCN(S(=O)(=O)c3ccccc3)CC2)nc2ccc(Cl)cn12
→ -5.1%, -7.0%, -5.9, ., 6.3, ., 10.5%
> Cc1cc(C)nc(SCC(=O)OCC(=O)N(C)c2c(N)n(Cc3ccccc3)c(=O)[nH]c2=O)n1
→ -1.6%, 7.7%, 5.7, 0.5, -1.1, 0.3%, -81.7%[inhibitor]
> CC1c2[nH]c3ccccc3c2C[C@H]2C(=O)N(CCCO)CC(=O)N12 (some centres undefined)
→ -2.2%, 2.5%, -0.3, -2.2, ., 3.7%, -15.7%
> COC(=O)c1nnn(-c2ccsc2C(=O)OC)c1C(=O)OC
→ ., 13.5%, ?, -1.7, -8.5, 5.9%, -2.0%[15.4 µM]
> CCc1ccccc1NC(=O)CN1CCN(C(=O)CNC(=O)Cc2cccc3ccccc23)CC1
→ -0.9%, -8.1%, 3.3, ., 6.5, ., 1.7%
> COc1ccc2c(c1)[C@@H]1[C@H](CO2)[C@H](c2ccccc2)[C@]2(C)C(=O)NCC(=O)N12
→ 0.2%, -8.3%, -3.5, ., 5.8, ., -34.9%[inhibitor]
> O=C(c1cccc(S(=O)(=O)N2CCOCC2)c1)N1CCCC(C(F)(F)F)C1 (centres undefined)
→ 0.1%, -3.9%, 26.1, ., 10.4, ., 0.8%
> O=S(=O)(c1ccccc1)N1N=C(c2ccccc2)CC1c1ccccc1F (centres undefined)
→ -1.1%, 0.2%, 2.5, 3.4, -13.8, 24.4%, 14.2%
> Cc1nc(SCC(=O)NCc2ccco2)c2c(=O)n(C)c(=O)n(CC(C)C)c2n1
→ ., ., 9.4, -4.3, ., 15.8%, .
> O=S(=O)(c1ccc(-c2ccno2)s1)N1CCCCC1
→ -1.1%, 12.2%, -10.1, -0.7, 8.6, 11.8%, ?
> Cc1ccc2c(c1)[C@H]1[C@H](CO2)[C@H](c2ccccc2)[C@]2(C)C(=O)N(CC3CCCO3)CC(=O)N12 (some centres undefined)
→ -1.4%, 3.5%, ., ., 2.5, ., -21.8%
> COc1ccc(-c2nnc(NC(=O)c3ccc([N+](=O)[O-])o3)o2)c(OC)c1
→ -1.4%, 6.7%, 5.9, 1.9, 10.4, -10.8%, -4.4%[15.4 µM]
> Cc1cccc(C)c1NC(=O)CCn1cnc2ccccc2c1=O
→ 0.7%, 2.7%, -5.3, -0.4, ., 19.4%, 22.1%
> Cc1ccccc1C(=O)Oc1cc(N)n(S(C)(=O)=O)n1
→ ., 4.8%, 6.2, 0.0, -5.0, 0.8%, -2.5%
> CSc1ccccc1C(=O)NCc1ccc2c(c1)OCO2
→ 0.3%, -0.1%, -5.8, 1.0, 2.6, 12.3%, -19.1%
> O=C(Nc1ccc(C(F)(F)F)cc1)C1CCCN1S(=O)(=O)c1cccc2cccnc12 (centres undefined)
→ -0.8%, ?, -14.5, 2.8, -14.2, -3.1%, 12.7%
> COC(=O)CCCCCCCCC(=O)Nc1nc2ccccc2s1
→ -0.6%, 4.8%, -5.2, 2.2, -5.0, 13.4%, 0.0%
> CC(=O)c1c(O)cc(C)n(-c2ccc(F)cc2)c1=O
→ -1.4%, 8.8%, 27.6, -0.4, ., -21.6%, -80.6%[inhibitor]
> COC(=O)C1(O)CC(C(C)C)=NN1C(=O)c1ccccc1 (centres undefined)
→ -2.4%, 5.6%, -11.1, 1.3, 8.6, 5.4%, -37.6%[inhibitor]
> CN1CCN(C(=S)c2cn(Cc3ccccc3F)c3ccccc23)CC1
→ -0.8%, -1.6%, 18.4, 6.2, -1.3, -7.8%, -8.2%
> Cc1ccc(C(=O)Nc2ccccc2SCC2CSc3nc4ccccc4c(=O)n32)cc1 (centres undefined)
→ -1.0%, ?, -8.5, 1.7, -0.6, 6.8%, -49.5%[inhibitor]
> COc1ccc(-c2oc3cccnc3c2-c2ccc(OC)nc2)cc1
→ 4.0%, -22.7%, 5.0, -6.0, -2.9, -20.1%, 8.8%
> Cc1cc(C(=O)NCCc2ccc(Cl)cc2)n(-c2ccccc2)n1
→ ., 0.5%, 4.9, -0.2, -8.9, 2.7%, 5.3%
> NNC(=O)CNC(c1ccccc1)c1cc(Br)ccc1NC(=O)CCN1CCOCC1 (centres undefined)
→ -9.3%, -1.2%, -4.5, 1.9, -2.1, 11.8%, 10.8%
> CC(=O)c1ccc(-n2c(SCC(=O)c3c[nH]c4ccccc34)nc3ccccc3c2=O)cc1
→ 0.8%, -15.5%, ?, -1.4, ., 8.5%, ?
> O=C(O)c1ccc(S(=O)(=O)Cc2ccccc2)cc1
→ 0.9%, -5.9%, 4.6, -1.0, 8.2, 1.9%, -29.8%
> COc1cccc(/C=N/Nc2snc(SC)c2C#N)c1O
→ ?, -13.2%, -0.3, 1.7, -75.7*, 6.7%, -10.2%
> CCCOc1ccc(-c2nc(-c3ccc([N+](=O)[O-])cc3)cs2)cc1
→ 0.5%, -19.7%, 13.1, 0.4, ., 5.9%, -4.3%
> Cc1nc(NCCO)c2nnn(Cc3ccccc3F)c2n1
→ 0.1%, -1.7%, -8.7, 2.6, 3.7, 7.8%, -23.2%
> O=C(/C=C/c1cccs1)c1cc(Cl)ccc1OC(=O)N1CCOCC1
→ -3.7%, -26.2%, -2.6, -2.9, -1.9, 3.7%, 0.0%
> C#CCOCCOCCOCCNc1nc(N2CCN(C(=O)CCCCCCCCCCNC(=O)Cn3cc(C[C@@H](C)O)nn3)CC2)nc(N2CCN(C(=O)CCCCCCCCCCNC(=O)[C@@H]([C@H](C)CC)n3cc(CCCCCN)nn3)CC2)n1
→ 1.1%, ?, -26.9, ., -6.5, ., .
> CCOc1ccc(CNCCNC(=O)c2nonc2N)cc1
→ 3.7%&-0.5%, 2.8%, 19.2, 1.7, ., 4.1%, -176.8%[inhibitor]
> CCCCOc1ccccc1C(=O)NCC(=O)O
→ 1.3%, -13.7%, 0.8, 1.8, 7.2, 15.2%, 1.5%
> COc1ccc(OC)c(-c2nnc(SCC(=O)NC3CCCCC3)o2)c1
→ -16.6%, -0.7%, -1.6, 0.0, -4.0, 8.5%, 14.8%
> Cc1ccccc1NC(=O)C(C)Sc1nnc(-c2ccncc2)n1CC1CCCO1 (centres undefined)
→ ., 1.6%, -1.0, 0.2, 28.2, 19.9%, -19.1%
> Cc1ccc(NC(=O)CN(C)C(=O)C(C)OC(=O)c2ccccc2NCCO)cc1 (centres undefined)
→ 25.1µM*, 0.6%, 1.2, ., -5.0, ., 13.1%
> CCCCCCSc1cc(-c2nc3cc(C)ccn3c2NCCCC)ccc1OC
→ 15.8µM*, -3.0%, -3.6, ., 0.5&1.8, ., .
> CC1(C)CCC(=O)N2CC[C@H]3C[C@H](OC(=O)Nc4ccc5c(c4)OCO5)C[C@@H]1[C@H]32
→ 1.0%, -1.4%, -0.6, 4.6, -0.5, 12.6%, 28.1%
> COC(=O)c1sccc1NC(=O)c1ccc(Cl)cc1
→ -11.5%, ?, -0.1, -6.5, -3.2, -4.8%, ?
> CCOc1ccc(Br)cc1CNCCN1CCOCC1
→ -3.0%, 10.8%, 0.4, 6.6, 6.6, -0.3%, 10.7%
> N#Cc1nc(-c2ccc(F)cc2)oc1NCCN1CCOCC1
→ 4.1%, -0.7%, -24.8, 0.3, 20.6, 14.5%, -6.4%
> CC1(C)OC(c2ccccc2)=C/C(=C/C=N/NC(=O)c2ccncc2)O1
→ ., -2.8%, 14.7, 3.4, -12.0, -3.9%, 0.1%[15.4 µM]
> Fc1cccc2ncnc(OCc3ccccc3)c12
→ ., -5.4%, -4.2, 6.7, -2.1, -9.3%, 11.1%[15.4 µM]
> COc1ccc(CCNCc2ccc(OCC(=O)N3CCCCC3)c(OC)c2)cc1OC
→ ., -3.0%, 3.1, 0.9, 1.2, 2.7%, 4.6%[15.4 µM]
> COc1cccc(NC(=O)CN(C)C(=O)c2ccc(OCc3ccccc3)c(OC)c2)c1
→ -0.5%, -5.6%, 1.4, ., -4.6, ., -14.3%
